Mtb betalactam: beta-lactam sensitization of Mtb H37Rv; M. tuberculosis H37Rv growth with meropenem, percent inhibition; hits of this screen are not shown here; inhibition, % at 25 µM; hit rate 0.27% among 330,000; AID 434955;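 active = about 74% or more and at least 40 points above the plate without the antibiotic, then above 30% in a dose series; inconclusive = first-round hits that could not be retested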;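 note: growth measured after seven days incubation then overnight dye step; 0% = bacteria only wells and 100% = bacteria with antibiotic; twin plates without the antibiotic show which effects depend on it; some results filed as inactive read as strong as hits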
Arbovirus anti: blocks arbovirus infection; arbovirus infection cell-based antiviral screen; inhibition, % at 10 µM; hit rate 0.37% among 200,000; AID 1251;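 active = inhibition from about 30%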;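 note: bluetongue infection of BSR cells; cell survival read as ATP light after 72 h; 0% = infected wells without compound and 100% = uninfected wells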
Mtb H37Rv: M. tuberculosis H37Rv growth inhibitors, H37Rv strain (AID 1626) | inhibition, % at 10 µM, or IC50 in µM where a hit was titrated | hit rate 0.95% among 220,000 | M. tuberculosis H37Rv growth inhibition; higher % means a stronger effect;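 active = confirmed in a dose series; inconclusive = inhibition above 80% but not taken into the dose series; inactive = below 80% or under 30% at every dose of the series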;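 note: bacteria incubated seven days before Alamar blue readout; 0% = bacteria only wells and 100% = bacteria with antibiotic wells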
RecA splice inh: inhibitors of M. tuberculosis RecA intein splicing; cell-free RecA intein splicing, fluorescence; inhibition, %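 (about 9 µM by stock and volumes)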; hit rate 0.75% among 290,000; in the data active = inhibition above about 30%; inconclusive = no clear call, values can overlap the other calls;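 note: 0% = vehicle wells and 100% = reference inhibitor control wells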
Target sequence (P9WHJ3 whole entry, looked up, canonical isoform): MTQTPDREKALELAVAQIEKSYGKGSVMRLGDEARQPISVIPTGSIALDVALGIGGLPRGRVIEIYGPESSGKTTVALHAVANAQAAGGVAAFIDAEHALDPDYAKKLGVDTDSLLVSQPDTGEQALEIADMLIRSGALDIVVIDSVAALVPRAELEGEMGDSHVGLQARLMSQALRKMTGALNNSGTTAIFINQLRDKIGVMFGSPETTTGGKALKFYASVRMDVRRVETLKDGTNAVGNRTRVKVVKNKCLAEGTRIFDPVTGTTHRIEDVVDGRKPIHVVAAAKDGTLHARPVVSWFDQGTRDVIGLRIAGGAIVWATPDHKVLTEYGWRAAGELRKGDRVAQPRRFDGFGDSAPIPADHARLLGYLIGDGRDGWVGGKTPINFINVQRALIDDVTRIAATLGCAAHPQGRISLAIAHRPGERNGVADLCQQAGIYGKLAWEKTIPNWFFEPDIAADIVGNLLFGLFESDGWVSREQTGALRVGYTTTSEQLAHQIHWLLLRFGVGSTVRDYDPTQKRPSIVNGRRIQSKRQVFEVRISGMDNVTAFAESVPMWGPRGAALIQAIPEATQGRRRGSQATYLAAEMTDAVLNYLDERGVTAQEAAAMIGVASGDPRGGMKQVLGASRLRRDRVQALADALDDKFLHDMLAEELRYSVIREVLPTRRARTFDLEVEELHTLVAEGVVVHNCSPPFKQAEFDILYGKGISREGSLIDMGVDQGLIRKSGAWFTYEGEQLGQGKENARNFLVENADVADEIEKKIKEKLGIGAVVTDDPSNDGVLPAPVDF
YopH inh: inhibitors of Yersinia enterocolitica YopH tyrosine phosphatase | inhibition, %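 (about 10 µM by stock and volumes)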 | hit rate 0.16% among 140,000 | fluorescence Ex485/Em525 | AID 898;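 active = inhibition of 50% or more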;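 note: controls were vehicle for no effect and minimum signal wells for full effect; inactives centre near -20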
Arbovirus anti repeat: second read-out of Arbovirus anti, no call of its own (marks repeat the call); inhibition, %; measured here: 10K subset replicate screen; many hits read low in the repeat;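 first of two repeat runs on a subset; 0% = infected and 100% = uninfected wells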
The depositor's hits bear a star; ? = inconclusive; . = not tested or not shown. An excerpt. The share of hits here may be higher or lower than overall.

SMILES | Mtb betalactam | Arbovirus anti | Mtb H37Rv | RecA splice inh | YopH inh | others
COc1ccc(Nc2ccc3c(c2)=NC2(CCCCC2)[N+]=3[O-])cc1 | 97.6 | -27.7 | 71.8% | 79.2* | -0.8 | Arbovirus anti repeat=-26.1
CCOc1cc(CN2CCN(C(=O)Cc3ccccc3)CC2)ccc1OC | -1.1 | . | . | -4.7 | .
CCCC1(C(=O)OCC)NC(c2cc(OC)c(OC)c(OC)c2)C2C(=O)N(CC)C(=O)C21 (centres undefined) | 7.4 | -2.3 | . | -5.3 | 12.1
COc1ccc(OCC(=O)NCCS(=O)(=O)N2CCN(c3ccc(F)cc3)CC2)cc1 | 7.9 | . | . | 0.6 | .
O=C(c1cccc(N2C(=O)c3ccccc3C2=O)c1)N1CCCCCC1 | 5.5 | 1.6 | 5.0% | 2.9 | .
CC(C)(C)C(=O)Nc1ccc(-c2cn3ccsc3n2)cc1 | 0.7 | -7.0 | . | 0.5 | -48.2
CCc1ccc2[nH]c(C(=O)Nc3ccc4c(c3)OCO4)cc2c1 | -0.8 | . | 3.2% | 6.5 | .
CCN(CCN(C)C)C(=O)C1CCN(S(=O)(=O)c2c(C)noc2/C=C/c2ccccc2F)CC1 | 2.9 | . | . | 0.2 | .
COc1ccc(CCC(C)NCc2ccc(F)cc2)cc1 (centres undefined) | -7.5 | . | . | -0.3 | .
O=c1[nH]c(/C=C/c2ccc(Br)cc2)nc2ccccc12 | -7.1 | . | . | -3.2 | .
CC(C(=O)Nc1ccccc1Br)c1ccc([N+](=O)[O-])cc1 (centres undefined) | -3.9 | -4.1 | 3.2% | -1.2 | -28.7
CCN(CC)S(=O)(=O)c1ccc(N/N=C/c2ccc(O)cc2)nc1 | 1.4 | -20.1 | 7.5% | -4.9 | .
COc1ccc(S(=O)(=O)N2CCCCC2)cc1NC(=O)c1ccc2c(c1)OCO2 | -1.5 | -2.9 | 1.1% | -0.8 | -7.9
O=c1[nH]c(=O)n(Cc2ccco2)c2c1C(C(F)(F)F)(C(F)(F)F)N=C(C1CCCCC1)N2 | -5.0 | 1.4 | -1.3% | -1.0 | -27.4
CCCn1c(SCc2cc(=O)[nH]c3ccccc23)nc2c1c(=O)n(C)c(=O)n2C | -0.8 | . | -0.2% | -2.4 | .
O=C(Nc1ccc2c(c1)OCO2)N1CCN(c2ccccc2)CC1 | 10.0 | -11.5 | 1.6% | -0.7 | .
CCCS(=O)(=O)N1CCN(CC2CC=CCC2)CC1 (centres undefined) | -1.9 | 5.1 | 2.2% | 1.9 | -1.6
O=C(Nc1ccon1)c1cccc(S(=O)(=O)N2CCCCCC2)c1 | -4.9 | 5.3 | -4.3% | 6.1 | 0.2
CN(CC(=O)Nc1ccccn1)S(=O)(=O)c1ccc(Cl)cc1 | 5.4 | 0.8 | -2.3% | 2.7 | -30.1
Cc1ccc(S(=O)(=O)N2CCC(C(=O)N3CCC[C@H]3C(=O)NC3CCS(=O)(=O)C3)CC2)cc1 (some centres undefined) | -9.8 | 9.2 | -10.1% | 0.7 | -41.5
CCOC(=O)c1cnc2cc3c(cn2c1=O)CCCC3 | -2.4 | -3.2 | . | -1.5 | -50.7
COc1ccc(CCNC(=O)CCNC(=O)N2CC(=O)Nc3ccccc32)cc1 | -7.0 | . | . | -1.1 | .
Cc1ccsc1/C=N/NC(=O)c1ccccn1 | 94.1 | -2.3 | 2.6% | -3.5 | -30.2
CN(C)c1c([N+](=O)[O-])cc2[nH]c(=O)[nH]c2c1[N+](=O)[O-] | -9.4 | -1.6 | -4.1% | 1.6 | -25.3
Cc1cc(Br)c(OCc2ccc(C(=O)N/N=C3\CC(=O)CC(C)(C)C3)cc2)c(Br)c1 | 2.8 | -21.5 | -1.4% | -1.1 | -8.2

Continued:
SMILES | Mtb betalactam | Arbovirus anti | Mtb H37Rv | RecA splice inh | YopH inh | others
CCc1cccc(CC)c1NC(=S)NCc1nc2ccccc2[nH]1 | 3.0 | -2.5 | 4.1% | . | .
CCn1c(C)[n+](Cc2ccccc2)c2ccc(C(=O)OC)cc21 | -5.2 | -2.1 | -0.8% | -3.3 | .
O=C(N/N=C\c1cc2c(cc1Cl)OCO2)c1cccnc1 | 0.6 | . | . | -3.5 | .
O=C(NCSC1=NCCS1)c1ccccc1 | -17.3 | 2.0 | -5.4% | -4.5 | -16.9
CCCCSC1(SCCCC)N=C(N)C2(C#N)C(c3ccccc3)NC(C)=C(C)C12C#N (centres undefined) | 9.8 | -4.6 | 7.9% | -2.3 | -2.9
CC1CN(C(=O)CCC(=O)NCCCN2CCC(Cc3ccccc3)CC2)c2cc(Cl)ccc2O1 (centres undefined) | 34.7 | . | . | 4.7 | .
COc1cc(/C=N/N2CCN(c3ccccc3OC)CC2)ccc1O | -7.0 | -5.2 | -3.8% | -3.1 | -20.5
Cc1nc(N)c(C#N)c(-c2ccccc2)c1C | -8.1 | 7.5 | 12.4% | 8.3 | -29.0
Cc1nc(-n2nnc3ccccc32)c2c3c(sc2n1)CCCC3 | 38.7 | 14.7 | -7.2% | -0.1 | -30.6 | Arbovirus anti repeat=-2.5
CCCCCCn1nc(C(=O)OCC(=O)c2c(N)n(C)c(=O)n(C)c2=O)c2ccccc2c1=O | 32.7 | 3.8 | 27.9% | 0.3 | .
Cc1sc(NC(=O)c2ccco2)c(C(c2ccccc2)N2CCC(C)CC2)c1C (centres undefined) | 11.1 | -16.8 | 80.9% | 1.7 | .
CC(C)Cc1nnc(NC(=O)CCC(=O)Nc2ccc3cn[nH]c3c2)s1 | -0.1 | . | -6.8% | . | .
CN1CCCN(C2C3CC4CC(C3)CC2C4)CC1 (centres undefined) | 9.0 | -13.6 | . | -0.3 | 5.3
O=C(NCCCN1CCN(c2cccc(Cl)c2)CC1)c1ccc(N2CCCC2=O)cc1 | -4.1 | -2.9 | 7.6% | -0.3 | 14.8
O=C(Nc1cccc(F)c1)c1ccc2c(c1)OCCO2 | -1.4 | . | . | -0.2 | .
Cc1ccc(/C=C/S(=O)(=O)NCC(=O)OCC(=O)NCc2ccccc2)cc1 | ? | . | . | 1.7 | .
Cn1c(CNC(=O)CNC(=O)c2cccc(Cl)c2)cc(=O)n(C)c1=O | 6.8 | . | . | 0.8 | .
COCCn1c(C)cc(/C=C2/SC(=O)N(C(C)C(=O)OC)C2=O)c1C (centres undefined) | 6.3 | . | 0.8% | -2.5 | .
CN(C)c1ccc(-c2nc3ccccc3c(=O)[nH]2)cc1 | 8.2 | . | -1.3% | -2.3 | .
COc1ccc(C)cc1N/C(N)=N/c1nc(C)cc(C)n1 | -5.8 | -2.9 | -4.6% | -1.1 | .
Cc1cc(C)n(-c2ccc(C(=O)OCC(=O)c3ccc(Br)s3)cc2)n1 | 98.7 | -1.3 | ? | 3.6 | -26.4
Cc1ccc(/C=N/NC(=O)CCCOc2ccc(Cl)cc2Cl)cc1 | -1.9 | -17.6 | 11.9% | -1.6 | -21.1
COCC1CCN(C(=O)c2cc(COc3ccc(OC)c4ccccc34)on2)C1 (centres undefined) | 4.9 | . | . | 5.3 | .
CCN1CCN(C(=O)C2CCC(CNS(=O)(=O)c3ccc(NC(C)=O)cc3)CC2)CC1 (centres undefined) | -1.3 | . | . | -0.9 | .
N#Cc1nc(Cc2cccc3ccccc23)oc1NCc1ccco1 | 20.7 | -7.4 | -1.6% | 24.0 | -27.9

Sorted by molar mass (ascending): 3 of the compounds above
SMILES | Mtb betalactam | Arbovirus anti | Mtb H37Rv | RecA splice inh | YopH inh | others
O=C(Nc1cccc(F)c1)c1ccc2c(c1)OCCO2 | -1.4 | . | . | -0.2 | .
COc1ccc(CCC(C)NCc2ccc(F)cc2)cc1 (centres undefined) | -7.5 | . | . | -0.3 | .
Cc1sc(NC(=O)c2ccco2)c(C(c2ccccc2)N2CCC(C)CC2)c1C (centres undefined) | 11.1 | -16.8 | 80.9% | 1.7 | .

(more compounds)
SMILES | Mtb betalactam | Arbovirus anti | Mtb H37Rv | RecA splice inh | YopH inh | others
COc1ccc(C2=NOC3(CC(=O)N(c4ccc(F)cc4)C3=O)C2)cc1 (centres undefined) | -5.2 | . | 0.9% | -6.0 | .
CCOc1ccccc1C(=O)N[C@H](C(=O)OCc1cc(=O)oc2cc(C)ccc12)C(C)C | 4.6 | -6.0 | -6.0% | 8.8 | -31.8
CC(=O)N1CCc2cc(S(=O)(=O)N3CC(C)CC(C)C3)ccc21 (centres undefined) | -1.9 | . | . | -0.1 | .
Cc1nc(N2CCC(C)CC2)c2nnn(Cc3ccccc3)c2n1 | 4.3 | -21.6 | 12.6% | 12.6 | 0.3
COc1ccc(O)c(C(=O)CC(=O)c2ccccc2)c1 | 73.1 | -16.9 | 0.1% | 3.3 | -37.6
Cc1ccc(CNC(=O)c2nn(C)c3c2CS(=O)(=O)c2ccccc2-3)cc1 | -2.0 | . | . | -1.0 | .
O=C(CCn1c(=S)[nH]c2ccccc2c1=O)Nc1cccc(Cl)c1 | -0.4 | . | . | -0.7 | .
CN(C)CC(=O)Nc1cc(C(F)(F)F)ccc1Cl | -1.0 | -0.5 | -5.7% | . | -21.4
CCOc1ccccc1/C=N/NC(=O)CNC(=O)COc1ccccc1 | 3.0 | 1.9 | 2.9% | 3.1 | .
CSC[C@H](NC(=O)COc1cc2c(c3oc(=O)c(C)c(C)c13)CCC(C)(C)O2)C(=O)O | 3.6 | . | . | -0.9 | .
CCOC(=O)/C(=C/c1ccc(Cl)cc1)NC(=O)c1ccco1 | -1.0 | 1.3 | -3.8% | 0.8 | -27.4
Cc1ccc(/C=C/C(=O)NC(=S)N2CCN(C)CC2)cc1 | -2.8 | -7.4 | 2.4% | -5.0 | -53.7
CC(C)(C)[C@H]1C=C(C(N)=O)O[C@@H](OCc2ccc(CO)cc2)C1 | -6.0 | 1.6 | -12.4% | 2.7 | .
O=c1oc2ccccc2c(NC(c2ccccc2)c2ccccc2)c1[N+](=O)[O-] | -2.1 | 5.3 | -2.0% | -0.7 | -23.7
Cc1cc2cc(CNC(=O)CCC(=O)O)ccc2[nH]1 | -4.5 | 4.8 | 2.1% | -1.6 | -0.1
Cc1ccccc1NC(=O)c1nn(C)c2c1CS(=O)(=O)c1ccccc1-2 | -6.5 | . | . | 1.0 | .
COc1ccc(-c2csc(NC(=S)NC(=O)c3cccs3)n2)cc1Br | -5.0 | . | 2.7% | 3.1 | .
COC(=O)c1ccc(NS(=O)(=O)NC(=O)c2cn(C)c3ccccc23)cc1 | 28.9 | . | . | 2.3 | .
O=C(NCCC1=CCCCC1)C(=O)NCC(c1ccco1)N1CCN(c2ccccc2F)CC1 (centres undefined) | 0.9 | -15.3 | 2.0% | -1.0 | -10.7

Among those listed so far, these contain fluorine.
SMILES | Mtb betalactam | Arbovirus anti | Mtb H37Rv | RecA splice inh | YopH inh | others
COc1ccc(OCC(=O)NCCS(=O)(=O)N2CCN(c3ccc(F)cc3)CC2)cc1 | 7.9 | . | . | 0.6 | .
CCN(CCN(C)C)C(=O)C1CCN(S(=O)(=O)c2c(C)noc2/C=C/c2ccccc2F)CC1 | 2.9 | . | . | 0.2 | .
COc1ccc(CCC(C)NCc2ccc(F)cc2)cc1 (centres undefined) | -7.5 | . | . | -0.3 | .
O=c1[nH]c(=O)n(Cc2ccco2)c2c1C(C(F)(F)F)(C(F)(F)F)N=C(C1CCCCC1)N2 | -5.0 | 1.4 | -1.3% | -1.0 | -27.4
O=C(Nc1cccc(F)c1)c1ccc2c(c1)OCCO2 | -1.4 | . | . | -0.2 | .
COc1ccc(C2=NOC3(CC(=O)N(c4ccc(F)cc4)C3=O)C2)cc1 (centres undefined) | -5.2 | . | 0.9% | -6.0 | .
CN(C)CC(=O)Nc1cc(C(F)(F)F)ccc1Cl | -1.0 | -0.5 | -5.7% | . | -21.4
O=C(NCCC1=CCCCC1)C(=O)NCC(c1ccco1)N1CCN(c2ccccc2F)CC1 (centres undefined) | 0.9 | -15.3 | 2.0% | -1.0 | -10.7
